Bioassay records as filed in PubChem BioAssay.
Rango-impB inh = qHTS Assay for Inhibitors of Rango (Ran-regulated importin-beta cargo) - Importin beta complex formation; Importin subunit beta-1 (Homo sapiens), Q14974; Rango CFP/YFP FRET sensor + importin beta, 45 min; Potency, µM (top dose mostly 92.2 µM), for inactives: at the highest dose inhibition of complex formation; 0.031% of 340,000 active; active = rising FRET ratio curve, often small or poorly fitted; inconclusive = mostly compound fluorescence or quenching in the first reads; inactive = flat curves in all reads;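 note: potency is the fitted concentration of half-maximal effect; 0% = DMSO wells and 100% = buffer wells lacking importin beta; nearly all actives have a fitted effect of over 15% in size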
Target sequence (Q14974 whole entry, looked up): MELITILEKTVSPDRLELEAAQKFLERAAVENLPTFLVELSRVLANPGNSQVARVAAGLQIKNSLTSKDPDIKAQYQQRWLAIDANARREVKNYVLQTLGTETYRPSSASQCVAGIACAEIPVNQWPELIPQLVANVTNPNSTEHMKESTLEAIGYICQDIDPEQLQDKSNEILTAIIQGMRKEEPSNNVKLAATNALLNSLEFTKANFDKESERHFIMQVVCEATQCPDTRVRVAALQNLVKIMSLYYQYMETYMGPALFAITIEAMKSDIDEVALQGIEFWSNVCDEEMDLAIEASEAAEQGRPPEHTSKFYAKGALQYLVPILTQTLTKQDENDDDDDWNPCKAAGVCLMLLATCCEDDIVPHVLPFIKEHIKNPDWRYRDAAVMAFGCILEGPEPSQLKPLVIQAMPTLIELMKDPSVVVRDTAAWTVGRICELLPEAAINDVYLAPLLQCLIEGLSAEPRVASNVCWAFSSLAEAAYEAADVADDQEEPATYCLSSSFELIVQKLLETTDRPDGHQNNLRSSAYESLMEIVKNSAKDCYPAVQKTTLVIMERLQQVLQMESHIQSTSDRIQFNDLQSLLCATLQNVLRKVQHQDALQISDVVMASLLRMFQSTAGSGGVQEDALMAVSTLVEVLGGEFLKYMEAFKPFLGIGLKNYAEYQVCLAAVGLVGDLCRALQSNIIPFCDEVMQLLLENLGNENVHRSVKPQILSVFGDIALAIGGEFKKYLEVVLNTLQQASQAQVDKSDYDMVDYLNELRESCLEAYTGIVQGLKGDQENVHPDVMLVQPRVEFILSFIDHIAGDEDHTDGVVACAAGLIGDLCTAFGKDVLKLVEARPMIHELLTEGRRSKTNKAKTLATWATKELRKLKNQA
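FRET biosensor (snurportin 1 IBB flanked by EYFP and cerulean), 50 nM, with compound 5 min, then 0.125 microM importin beta in PBS, 1 mM DTT, 0.02% Tween-20, 0.1% BSA. CFP/YFP ratio read after 45 min at room temperature; pre-read flags interference.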
GLA inh pH 4.5 = qHTS Assay for Inhibitors of Human alpha-Galactosidase at pH 4.5; Alpha-galactosidase A (Homo sapiens), P06280; purified enzyme, 4-MU-alpha-Gal fluorescence, pH 4.5; activity change, negative = inhibition, % at 105 µM; 230,000 tested, under 10 active; AID 1467, 2008; inconclusive = small, poorly fitted or top-dose-only inhibition, or a rising curve; inactive = flat fitted curve, though single readings scatter; no compound was filed as active;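 note: 0% = full activity with enzyme and -100% = basal without enzyme; dose as in the result columns while the protocol names 77 µM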
Rango dissoc inh = qHTS Assay for Inhibitors of RanGTP induced Rango (Ran-regulated importin-beta cargo) - Importin beta complex dissociation; Snurportin-1 (Homo sapiens) + GTP-binding nuclear protein Ran (Homo sapiens) + Importin …; Biochemical FRET Rango-importin beta, RanGTP-induced dissociation; Potency, µM (titrated, usually from 46.1 µM), for inactives: at the top dose activity change, negative = inhibition; 0.071% of 340,000 active; AID 540253, 2011; active means falling FRET ratio curve, often poorly fitted, with flat reads before Ran was added; inconclusive means other falling curves, or compound fluorescence or quenching; inactive means flat or rising ratio curve;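 note: potency is the fitted concentration of half-maximal effect; % of control where 0% means no effect; nearly all actives have a fitted effect of over 45% in size; -100% = wells without RanGTP and RCC1; the record marks most hits as doubtful in a second field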
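Quantitative HTS using a FRET biosensor: 0.1 uM Rango, 0.25 uM importin beta, 0.6 uM Ran, 2 mM GTP, 0.2 uM RCC1 final, PBS with DTT, Tween-20 and BSA. Post-read taken 45 min after Ran addition.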
miR-21 FLuc = qHTS Assay for Modulators of miRNAs and/orActivators of miR-21. HeLa miR-21 FLuc reporter, luciferase, 48 h. AID 2288, 2010. 340,000 tested, under 10 active. Potency, µM (top dose mostly 38.3 µM), for the others: at the highest dose reporter change, positive = more light; active = well fitted rising curve with a large enough effect; inconclusive = small, poorly fitted or top-dose-only effect; inactive = no such curve, though single readings can be large or run the other way;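 note: % of control where 0% means no effect; miR-21 action dims this reporter so a rising signal means less miR-21 action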
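HeLa cells stably expressing CMV-driven firefly luciferase with a downstream miR-21 binding sequence, endogenously expressing miR-21, were treated with titrations (up to about 40uM final) for 48 hours at 37 degree Celsius. Luciferase luminescence was read after lysis.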
The depositor's hits bear a star; ? = inconclusive; · = no result given; & = joins results of further samples. Not all compounds are listed; count on the stated rates, not on these rows.

Each structure is followed by: Rango-impB inh	GLA inh pH 4.5	Rango dissoc inh	miR-21 FLuc
1: CCN1CCCC(OC(=O)c2cc(-c3ccccc3Cl)nc3ccccc23)C1 (centres undefined)
→ -0.1%	-19	-10%	1%
2: Cc1ccc(Sc2ncccc2COC(=O)Nc2ccccc2)cc1
→ 3.1%	-9	-5%	-7%
3: O=C(Nc1nccs1)c1cc2sccc2n1Cc1ccc(Cl)cc1
→ 0.1%	3	10%	-5%
4: C/C(=N/NC(=O)c1cccs1)c1cccc(N)c1
→ -1.5%	4	-12%	-56%
5: CCC(=O)Nc1ccc(NC(=O)CSc2nnnn2C2CCCC2)cc1C
→ -1.8%	·	-2%	1%
6: O=C(c1ccccc1)N1CCN(C(=O)N2CCCCC2)CC1
→ 1.4%	9	-7%	0%
7: Cc1cc(C(=O)CSc2nnnn2-c2ccccc2)c(C)n1CCc1ccccc1
→ -1.5%	2	-2%	-1%
8: O=C(Nc1ccnn1C1CCN(C2CCCCC2)CC1)c1cccc(F)c1
→ -3.9%	·	23%	0%
9: Cc1cnccc1CNC(=O)CC1C(=O)NCCN1CC(C)(C)C (centres undefined)
→ 1.4%	-1	-18%	-2%
10: CCOC(=O)CN1CCC(c2cc(-c3ccc(Cl)cc3)n[nH]2)CC1
→ 0.7%	·	14%	0%
11: CC1(C)Cc2cccc(OCC(N)=O)c2O1
→ -3.2%	6	-11%	-2%
12: Cc1ccccc1Nc1nccc(N(C)C)c1C#N
→ -2.9%	-12	4%	0%
13: COc1ccc(/C=C(/NC(=O)c2ccccc2)C(=O)N/N=C/c2ccncc2)c(OC)c1
→ 0.2%	-10	29%	-7%
14: COCCNC(=S)Nc1cc2oc3ccccc3c2cc1OC
→ 0.6%	·	-15%	-21%
15: COc1ccc([N+](=O)[O-])cc1COc1ccc2c(-c3ccccc3)cc(=O)oc2c1
→ -0.4%	6	-6%	-3%
16: COc1ccccc1-c1noc(-c2ccncc2)n1
→ 0.6%	-1	-1%	-48%
17: CC1Cc2ccccc2N1S(=O)(=O)c1cccc(C(=O)N2Cc3ccccc3CC2C(N)=O)c1 (centres undefined)
→ ?	·	?	·
18: c1ccc2c(c1)CC1(CCCC1)n1nnnc1-2
→ 8.2%	-9	29%	0%
19: COc1ccc(/C=C/C(=O)C(C)(C)C)cc1OC
→ -0.1%	3	7%	-26%
20: COC(=O)C1=C(C)N(Cc2ccccc2)C(=NCc2ccc3c(c2)OCO3)N[C@H]1c1ccccc1
→ -0.9%	·	0%	0%
21: C[C@@H]1O[C@@H](O[C@@H]2[C@@H](O)[C@H](OCCc3ccc(O)c(O)c3)O[C@H](CO)[C@H]2OC(=O)/C=C/c2ccc(O)c(O)c2)[C@H](O)[C@H](O)[C@H]1O
→ -0.4%	·	58%	·
22: Cn1cc(/C=C/c2cc[n+](C)cc2)c2cc(F)ccc21
→ ?	·	?	?
23: COc1cc(/C=C/C(=O)Nc2cccc(S(=O)(=O)NC3=NCCCCC3)c2)ccc1OCC#N
→ ?	·	-14%	·
24: COC(=O)c1nnn(CC(=O)NC(=O)Nc2cccc(C)c2C)c1C(=O)OC
→ 0.8%	5	1%	4%&-4%
25: Cc1cc(C)n(CC(O)CN2c3ccccc3Sc3ccccc32)n1 (centres undefined)
→ 3.8%	-1	4%	7%
26: COc1cc(/C=N/N=C/c2cc(OC)c(O)c(OC)c2)cc(OC)c1O
→ ?	-3	-20%	-2%
27: CC(C)(CC(=O)O)CC(=O)N1CCCN(c2nc3ccc(Cl)cc3s2)CC1
→ 1.6%	0	3%	-19%
28: O=C(c1ccco1)N1CCN(c2ccc(S(=O)(=O)N3CCCC3)cc2)CC1
→ -6.6%	2	1%	-4%
29: CCN(CC)C(=O)[C@H]1CC(CC(=O)NCCC2=CCCCC2)C(=O)N2CCc3c([nH]c4ccccc34)[C@]12C (some centres undefined)
→ 4.8%	·	5%	·
30: O=C(NC1CCCC1)C1CC(=O)N(c2ccccc2)C1 (centres undefined)
→ 1.1%	·	0%	2%

Complete entries from above. Screens in order: Rango-impB inh	GLA inh pH 4.5	Rango dissoc inh	miR-21 FLuc
Profile of Cc1cc(C(=O)CSc2nnnn2-c2ccccc2)c(C)n1CCc1ccccc1 → -1.5%	2	-2%	-1%
Profile of O=C(c1ccccc1)N1CCN(C(=O)N2CCCCC2)CC1 → 1.4%	9	-7%	0%
Profile of O=C(Nc1nccs1)c1cc2sccc2n1Cc1ccc(Cl)cc1 → 0.1%	3	10%	-5%
Profile of CCOC(=O)CN1CCC(c2cc(-c3ccc(Cl)cc3)n[nH]2)CC1 → 0.7%	·	14%	0%
Profile of CC1(C)Cc2cccc(OCC(N)=O)c2O1 → -3.2%	6	-11%	-2%

Next section:
Each structure is followed by: Rango-impB inh	GLA inh pH 4.5	Rango dissoc inh	miR-21 FLuc
31: Cc1sc(NC(=O)C2CCCC2)c(C#N)c1C
→ -0.2%	-3	-1%	-30%
32: Cn1nnnc1SCC(=O)Nc1ccccc1C(=O)NCc1ccccc1
→ -5.3%	1	-14%	-13%
33: CCOc1ccc(Br)cc1S(=O)(=O)Nc1ccc(C(=O)Nc2ccccc2OC)cc1
→ 0.4%	18	-10%	-12%
34: c1nc(NC2CCCC2)c2[nH]cnc2n1
→ -3.0%	-4	26%	-3%
35: O=C(C1CCCN(Cc2ccc(F)cc2)C1)N1CCCCC1 (centres undefined)
→ 2.0%	·	2%	2%
36: COCCn1c(SCC(=O)N2CCCC2)nnc1-c1ccco1
→ 5.2%	·	-9%	-2%
37: CCCn1c(SCC(=O)NCc2ccco2)nc2c1c(=O)n(C)c(=O)n2C
→ 5.6%	-5	5%	-1%
38: CCOc1ccc2cc(C#N)c(SCC(=O)N3CCOCC3)nc2c1
→ -5.9%	2	-10%	-65%
39: O=C(Nc1ccc2c(c1)OCO2)C1CC(=O)N(c2ccc(F)cc2)C1 (centres undefined)
→ 1.0%	·	-12%	-9%
40: Cc1c(NC(=O)C(C)OC(=O)c2cccs2)c(=O)n(-c2ccccc2)n1C (centres undefined)
→ 0.5%	-4	-16%	-1%
41: CCOC(=O)c1cc2sccc2n1CC(=O)Nc1ccc(OC)c(OC)c1
→ -1.5%	-22	-7%	-6%
42: OCC1(Cc2cccc(F)c2)CCN(Cc2ccc3cccc(F)c3n2)CC1
→ -0.2%	-7	-7%	2%
43: Cc1ccc(NC(=O)C2CCN(S(C)(=O)=O)CC2)cc1C
→ 1.9%	3	0%	-3%
44: CN(CCNS(=O)(=O)c1ccc2c(c1)oc(=O)n2C)Cc1ccccc1
→ 0.4%	11	-13%	-10%
45: CCOC(=O)c1sc(NC(=O)CSc2nnnn2-c2ccccc2)c(C(=O)OCC)c1C
→ ?	-8	3%	-6%
46: CCC(=O)NC(c1ccccc1)c1c(OC(C)=O)ccc2ccccc12 (centres undefined)
→ 0.7%	8	7%	-1%
47: COc1ccccc1N1CCN(S(=O)(=O)CCNC(=O)CC2CCCCC2)CC1
→ 1.5%	·	?	·
48: Cc1ccc(-n2nc3c(=O)n(C(C)C(=O)NCc4ccco4)nc(C)c3c2C)cc1 (centres undefined)
→ -5.0%	·	4%	2%&5%
49: Cc1ccccc1OCCCn1c(=O)sc2ccccc21
→ -0.5%	2	3%	-67%
50: Cc1cc(O)cc(O)c1C(=O)Cc1ccccc1
→ -1.3%	4	6%	14%
51: CNS(=O)(=O)c1ccc(NC(=O)Nc2ccc3c(c2)OCO3)cc1
→ -4.8%	·	2%	-54%
52: COc1ccc(Cn2cc([N+](=O)[O-])nc2C)cc1[N+](=O)[O-]
→ -2.1%	-12	-11%	6%
53: Cn1nnnc1NCc1cccc(Cl)c1Cl
→ -0.8%	5	8%	-10%
54: CCCCCn1c(=O)[nH]c2cc(C(=O)NCc3ccc4c(c3)OCO4)ccc2c1=O
→ -1.5%	10	-11%	-3%
55: Cc1cccc(OCC(=O)N(Cc2ccc(C)o2)C2CCS(=O)(=O)C2)c1 (centres undefined)
→ -0.9%	·	?	0%
56: COc1ccc(S(=O)(=O)n2nc(OC(=O)c3c(-c4ccccc4Cl)noc3C)cc2N)cc1
→ -1.0%	-4	-8%	0%
57: CCOCCc1nnc(NC(=O)c2cc(OC)c(OC)cc2[N+](=O)[O-])s1
→ -2.8%	2	7%	-1%
58: CN(C)CCSc1nc2cc(S(=O)(=O)N3CCCCC3)ccc2o1
→ 0.4%	·	0%	·
59: CCc1ccc2ncc(C(=O)c3ccccc3)c(N3CCOCC3)c2c1
→ 0.3%	5	26%	1%
60: CCOc1ccc(N2C(=O)CC(Cc3ccc(Br)cc3)C2=O)cc1 (centres undefined)
→ 0.2%	·	20%	-13%
61: CN(CC(=O)NC(c1ccccc1)c1ccccc1)Cc1nc2ccccc2c(=O)[nH]1
→ -2.7%	2	13%	-8%
62: C=C1c2cc(CC)ccc2NC(=O)N1c1ccc(C)cc1
→ -3.2%	6	36%	-31%
63: NS(=O)(=O)c1ccc(CNC(=O)Cn2nc(C(F)F)cc2C(F)F)cc1
→ -0.2%	·	11%	·
64: CCc1ccccc1-n1cnc2cc(C(=O)O)ccc21
→ -1.8%	15	-1%	-4%
65: CCOC(=O)CN(c1ccccn1)S(=O)(=O)c1ccc(OC)cc1
→ 0.2%	-1	?	0%
66: CCCC(O)(CCC)C(=O)NNc1ccccc1
→ 0.4%	-2	10%	-11%
67: COC(=O)c1cc(C)ccc1/C=C1/Cc2c(C)cc(C)cc2C1=O
→ -0.3%	·	-9%	·
68: CN(C)CCNC(=O)CCCNC(=O)Cn1cnc2sc3c(c2c1=O)CCCC3
→ -0.3%	11	-2%	-2%
69: O=C(Nc1ccccc1)/C(=C\c1ccncc1)NC(=O)c1ccccc1
→ 4.2%	-15	53%	-13%
70: O=C(Nc1ncc2c(n1)CC(c1ccccc1)CC2=O)c1ccco1 (centres undefined)
→ -1.4%	-16	6%	-10%
71: Cc1ccc(Cn2nc(C)c(NC(=O)CSc3n[nH]c(C)c3[N+](=O)[O-])c2C)cc1
→ 0.4%	-9	4%	4%
72: CC(=O)c1cccc(NS(=O)(=O)c2csc(C(N)=O)c2)c1
→ 0.0%	·	-2%	-3%
73: COc1ccccc1Oc1nc([N+](=O)[O-])nn1CC(N)=O
→ -1.1%	8	-10%	4%
74: Brc1ccccc1-c1ccccc1
→ 0.1%	·	-5%	·
75: O=C1c2ccccc2C(Nc2ccccc2)N1Cc1ccc2c(c1)OCO2 (centres undefined)
→ -3.5%	-11	18%	-7%
76: COc1ncccc1-c1nnn(-c2ccccc2Br)n1
→ -2.7%	·	7%	·
77: CN(C)N1C(=O)CC(N2CCCC2)C1=O (centres undefined)
→ -0.8%	2	3%	1%
78: CCCNS(=O)(=O)c1ccc(OCC(=O)N2CCN(c3ccccc3)CC2)cc1
→ -3.7%	9	6%	-2%
79: Cc1ccccc1-c1nc(-c2ccc(NC(=O)c3cccs3)cc2)no1
→ 2.4%	2	2%	0%
80: Cc1ccc(C(=O)Nc2cccc(C(F)(F)F)c2)cc1NC(=O)c1ccno1
→ 0.9%	-16	18%	4%
81: CCOC(=O)N1CCC(N2C(=O)c3ccccc3C2Nc2cccnc2)CC1 (centres undefined)
→ 5.2%	13	-1%	1%
82: O=C(COC(=O)COc1ccc(Cl)cc1)NCc1cccs1
→ 0.7%	9	-12%	-4%
83: Cc1ccsc1C(=O)NCCc1c[nH]c2ccccc12
→ 0.7%	·	31%	-61%
84: O=C1C=C(c2ccc3ccccc3c2)C[C@@H](c2ccc(F)cc2)C1
→ 1.3%	·	2%	·

A second format for some results above:
nr	SMILES	Rango-impB inh	GLA inh pH 4.5	Rango dissoc inh	miR-21 FLuc
77	CN(C)N1C(=O)CC(N2CCCC2)C1=O (centres undefined)	-0.8%	2	3%	1%
78	CCCNS(=O)(=O)c1ccc(OCC(=O)N2CCN(c3ccccc3)CC2)cc1	-3.7%	9	6%	-2%
79	Cc1ccccc1-c1nc(-c2ccc(NC(=O)c3cccs3)cc2)no1	2.4%	2	2%	0%
